# Screening results: PubChem BioAssay, ICCB-Longwood Screening Facility, Harvard Medical School
# Sa growth inh: S. aureus growth inhibition at 42 and 30 °C, primary screen, LtaS inhibitor project, RN4220, two temperatures; OD600, 20 h, 42 °C; active compounds read low; relative growth, % (no concentration beside the values); 0.53% of 170,000 active;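 active means growth at 42 °C up to 50% and 20 or more points under that at 30 °C, or under 10% at both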;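 further: 300 nL library stock went into each well; scaled to the means of positive and negative controls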
# HCMV UL50-53 inh: inhibitors of HCMV UL50-UL53 interaction, biochemical, HTRF | HCMV UL50-UL53 nuclear egress complex (human cytomegalovirus) | normalized percent inhibition | inhibition, % (no concentration beside the values) | 0.15% of 190,000 active;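 active means both replicates at 50% or more, plus weaker picks with an unusually low signal ratio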;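 further: stock transfer was 100 nL into about 20 µL; 0% = negative control wells and 100% = wells with untagged competitor protein; inactives centre near -12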
# GIV Gai3 FP: inhibitors of GIV peptide binding to Galpha-i3, primary screen, biochemical, fluorescence polarization, FITC-GIV GBA peptide, rat Galphai3. percent of control (FP), % (concentration not given with the values). Guanine nucleotide-binding protein G(i) subunit alpha-3 (Rattus norvegicus), P08753. 0.42% of 210,000 active. 90 min; active compounds read low; scaled: aluminum fluoride 0%, vehicle 100%;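 active means replicate mean at 85% of control or lower, very high polarization wells dropped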;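 further: wells of about 15 µL received 100 nL stock; the first replicate is given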
# Target sequence (P08753 whole entry, looked up): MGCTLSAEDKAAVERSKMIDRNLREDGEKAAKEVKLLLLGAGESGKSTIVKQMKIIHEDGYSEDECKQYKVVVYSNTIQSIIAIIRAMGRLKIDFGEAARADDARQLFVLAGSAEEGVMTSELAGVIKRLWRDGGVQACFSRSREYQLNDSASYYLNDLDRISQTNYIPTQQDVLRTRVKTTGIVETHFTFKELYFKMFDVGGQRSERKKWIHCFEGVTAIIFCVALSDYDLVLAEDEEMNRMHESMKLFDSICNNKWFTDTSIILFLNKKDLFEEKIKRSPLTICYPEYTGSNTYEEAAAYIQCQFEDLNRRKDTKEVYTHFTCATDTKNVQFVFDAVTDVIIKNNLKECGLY
# Sa growth inh second temp: also measured in Sa growth inh; calls as there; relative growth, %; measured here: growth at 30 °C;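 optical density after 20 h as mean of two plates; 100% = untreated growth and lower means inhibition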
# * marks the source's active call; other numbers are inactive results; . = not tested or not shown.
# Values run as follows: Sa growth inh	Sa growth inh second temp	HCMV UL50-53 inh	GIV Gai3 FP
CCOC(=O)c1cc(-c2ccc(F)cc2)n(CC(=O)NC2CCCC(C)C2C)c1C (stereo unspecified)
→ 91	89	.	105
O=C(CC1(O)C(=O)Nc2ccccc21)C1CC2C=CC1C2 (stereo unspecified)
→ 90	91	-7	.
CN(CCC#N)C(=O)Cn1ncc2c(=O)oc3ccccc3c21
→ 107	104	7	101
COc1ccc(-c2nc(Nc3nc(C)cc(C)n3)sc2CCC(=O)O)cc1
→ .	.	-12	102
O=C(Cn1ccn2nc(-c3ccc(Cl)cc3)cc2c1=O)NC1CCCCC1
→ .	.	4	105
O=C(COc1ccccc1[N+](=O)[O-])Nc1cc(-c2nc3cc(Cl)ccc3o2)ccc1Cl
→ 106	93	-11	103
O=C(O)Cn1c(=O)oc2cc(S(=O)(=O)N3CCOCC3)ccc21
→ 90	88	.	109
CC1CCCC(C)N1C(=O)CN(C)S(=O)(=O)c1ccc(Cl)cc1 (stereo unspecified)
→ 106	108	-4	99
CCn1ccc2c(OCC(=O)Nc3ccccc3C)cccc2c1=O
→ 104	98	.	103
O=C(COC(=O)c1cccc2ccccc12)NC1CCS(=O)(=O)C1 (stereo unspecified)
→ 106	90	-58	.
O=C(O)c1ccc(NC(=O)C2CC(=O)N(CCc3ccccc3)C(=Nc3ccccc3)S2)cc1 (stereo unspecified)
→ .	.	-12	103
N#Cc1c(N)nc(SCC(N)=O)c(C#N)c1-c1ccc(Br)cc1
→ .	.	66*	105
O=C(NCc1ccco1)C(c1ccccc1)N(C(=O)Cc1cccs1)c1cccnc1 (stereo unspecified)
→ 107	85	-28	100
O=C(NCC(c1ccco1)N1CCCC1)c1ccc(-c2nc3ccccc3s2)s1 (stereo unspecified)
→ 80	67	-63	.
Cc1[nH]nc2ncc(C(=O)c3ccccc3O)cc12
→ 107	84	-16	.
c1ccc2c(CNn3cnnc3)cccc2c1
→ 95	95	-6	107
COc1ccc(/C=C2/N=C(c3ccccc3)OC2=O)s1
→ 102	77	-8	101
CCOC(=O)NC(=S)N1C(C)CCCC1C (stereo unspecified)
→ 82	92	1	98
COC(=O)c1ccc(CSc2nc(-c3cccs3)nc3c2c(=O)n(C)c(=O)n3C)o1
→ 111	97	.	98
CN(C)S(=O)(=O)c1cc(C(=O)Nc2nccs2)c(Cl)cc1Cl
→ 102	79	-1	99

# Additional records follow.
# Values run as follows: Sa growth inh	Sa growth inh second temp	HCMV UL50-53 inh	GIV Gai3 FP
COc1ccc(NC(=O)CC2C(=O)N(c3ccc(C)cc3)C(=O)N2CCc2ccccc2)cc1 (stereo unspecified)
→ 95	81	-37	104
N#Cc1oc2ccccc2c1NC(=O)COC(=O)c1ccc(N2C(=O)c3ccccc3C2=O)cc1
→ 100	82	-31	.
Cc1ccc(C(=O)N2CCc3cc(CNS(=O)(=O)c4cccs4)ccc32)cc1
→ 92	78	.	102
O=C(c1cccc(N2C(=O)CCS2(=O)=O)c1)N1CCc2ccccc21
→ .	.	-12	106
CCC(C)NC(=O)CN(C)S(=O)(=O)c1ccc2c(c1)C(C)(C)C(=O)N2C (stereo unspecified)
→ .	.	-8	106
Cc1ccc2nc(-c3ccc(Cl)c(NC(=O)COc4cccc(C)c4C)c3)oc2c1
→ 121	88	-13	105
CCCc1cc(NCc2cccnc2)n2c(nc3ccccc32)c1C#N
→ 104	91	10	104
C=C1SC(Nc2c(C)cccc2C)=NC12CCCCC2
→ 116	82	.	100
CCN(CC)c1ncnc2sc3c(c12)CCCC3
→ 96	99	-13	102
N#CC1=C(N)NC(SCC(=O)Nc2cccc3ccccc23)=C(C#N)C12CCCCC2
→ 90	90	-6	.
CC1CCC(NC(=O)c2cc3oc4ccccc4c3n2C)CC1 (stereo unspecified)
→ 99	104	6	113
COc1ccc(NC(=O)CN2C(=O)COc3ccc(S(=O)(=O)NC4CCCC4)cc32)cc1OC
→ 94	98	.	105
O=S(=O)(c1ccccc1)N(CCO)Cc1ccccc1
→ 88	84	-16	.
CCC(=O)c1cn(S(=O)(=O)c2ccc(C)cc2)c2ccccc12
→ 129	87	.	99
Cc1ccc(Cn2c(SCc3cccc(C(F)(F)F)c3)nc3ccncc32)cc1
→ 116	84	.	106
CCN(CC)Cc1c(O)ccc2c(=O)c(-c3ccc(OC)c(OC)c3)c(C(F)(F)F)oc12
→ .	.	-17	100
OC(CNCc1ccco1)COc1ccccc1 (stereo unspecified)
→ 108	102	10	.
O=C(O)CCC(=O)Nc1sc2c(c1C(=O)O)CCCC2
→ 86	93	.	96
c1ccc(-c2cc3ccsc3o2)cc1
→ 112	63	.	99
O=C(Nc1ccc(F)cc1)c1ccc(-n2nc(OCc3ccc(Cl)cc3)ccc2=O)cc1
→ .	.	-3	96

# The results go on:
# Values run as follows: Sa growth inh	Sa growth inh second temp	HCMV UL50-53 inh	GIV Gai3 FP
CC1(C(=O)NC2CCCC2)CCC(=O)N1Cc1ccc(Cl)cc1 (stereo unspecified)
→ .	.	-4	104
Cc1ccccc1Nc1nn2c(=O)c3ccc(C(=O)NCC(C)c4ccccc4)cc3nc2s1 (stereo unspecified)
→ 129	70	.	106
Cn1c(SCC(=O)NCc2ccc(F)cc2)nc2c(-c3ccccc3)csc2c1=O
→ .	.	-9	97
CCOC(=O)c1cnn(-c2cccc(F)c2)c1C1CCNCC1
→ 93	97	-6	107
CCOC(=O)C1=C(c2ccccc2)Nc2ncnn2C1c1ccc(OCc2ccccc2)cc1 (stereo unspecified)
→ 116	91	.	101
Cc1c(-c2cccc(NC(=O)C3c4ccccc4Oc4ccccc43)c2)nc2ncccn12
→ .	.	-25	100
O=S(=O)(c1c[nH]c(-c2nnc(-c3ccc(F)cc3)o2)c1)N1CCOCC1
→ .	.	-31	98
Cc1cc(S(=O)(=O)[C@H]2CS(=O)(=O)C[C@@H]2NC2CC2)ccc1F
→ .	.	-22	100
O=C(c1cnc2sc3c(n2c1=O)CCC3)N1CCN(c2ccccn2)CC1
→ .	.	-18	105
Cc1ccc(-c2n[nH]c(=O)c3ccccc23)cc1S(N)(=O)=O
→ 94	80	-14	100
COc1ccc(O)c(C(=O)c2cnn(C(=S)Nc3ccccc3)c2N)c1
→ 110	72	-27	.
O=c1ccc(-c2ccc(S(=O)(=O)NCCc3cccs3)o2)n[nH]1
→ 100	81	-108	106
Cc1ccc2cc3cc(C(=O)NC(C)C)sc3nc2c1
→ 98	89	-17	100
COC(=O)c1cccc(OCC(O)CN(C)Cc2ccc(OC(F)F)c(OC)c2)c1 (stereo unspecified)
→ 97	94	-19	.
CCN1C(=O)/C(=C/c2ccc(-c3ccc(Br)cc3)o2)N(CC)C1=S
→ 101	87	.	108
C/C(CC12CC3CC(CC(C3)C1)C2)=N\NC(N)=O
→ 76	86	-8	.
CC1=C2C(=NCCN1)C(=O)N(c1ccccc1)C2c1cccs1 (stereo unspecified)
→ 103	86	-65	137
O=C(C(Sc1ccccc1)c1ccccc1)N1CCOCC1 (stereo unspecified)
→ 88	78	-25	104
COc1ccc(-c2nc3ccccc3n2CCOc2ccccc2)cc1
→ 65	58	.	105
COc1ccccc1CN(C)C(=O)CN1CCN(C(=O)c2cccs2)CC1
→ 114	85	-14	.

# (next part)
Molecule | Sa growth inh | Sa growth inh second temp | HCMV UL50-53 inh | GIV Gai3 FP
COc1ccc2oc(=O)c(C(N)=O)cc2c1 | 102 | 97 | -108 | 104
COc1ccc(C2CC(=O)N(CC(=O)N3CCOCC3)c3ccccc3S2)cc1 (stereo unspecified) | 85 | 90 | . | 101
COc1cc2c(cc1OC)CN(Cn1cnc3ccccc3c1=O)CC2 | 91 | 85 | -57 | .
CC1(C)CC(=O)c2cnc(N)nc2C1 | 114 | 95 | -12 | 108
CSc1cc(-c2ccncc2)nc(-c2cccs2)c1 | 41 | 30 | 0 | 105
CN(Cc1ccccc1)C(=O)C1CCN(Cc2cc3ccccc3n2Cc2ccccc2)CC1 | 118 | 90 | . | 103
COC(=O)c1cc(S(=O)(=O)N2CCN(c3cccc(C(F)(F)F)c3)CC2)cn1C | 98 | 85 | . | 97
COc1cccc(NC(=O)Cn2c3ccccc3n3c(=O)cc(-c4ccccc4)nc23)c1 | . | . | -18 | 99
Cc1cc(S(=O)(=O)N2CCOCC2)ccc1OCC(=O)Nc1ccc2c(c1)OCO2 | 80 | 76 | -31 | 100
CCC12CN3CC(CC)(CN(C1)C3c1ccc3c(c1)OCO3)C2O (stereo unspecified) | . | . | -14 | 103
CCOc1cc(C(=O)Nc2cc(Cl)ccc2OC)cc(OCC)c1OCC | 99 | 89 | . | 95
O=C(CSCC(O)Cn1c2ccccc2c2ccccc21)Nc1ccccc1 (stereo unspecified) | 122 | 61 | -13 | 104
COC(=O)/C=C1/C(=O)N/C(=N\c2nc(C)cc(C)n2)N1c1cccc(C)c1 | 107 | 95 | . | 99
NC(=O)CCNC12CC3CC(CC(C3)C1)C2 | 104 | 93 | -2 | .
Nc1cc(-c2ccccc2)n2c(n1)nc1ccccc12 | 92 | 86 | -1 | 98
O=C(CSc1nc(-c2ccccc2)no1)N1CCCCC1 | 111 | 85 | -8 | 102
CCOC(=O)c1c(-c2ccc(F)cc2)csc1NC(=O)C1=Cc2ccccc2OC=C1 | . | . | -8 | 101
Cc1cc(Nc2cccc(Cl)c2)nc2ccc(NC(=O)Cc3c(F)cccc3Cl)cc12 | 103 | 83 | . | 99
CCOC(=O)Cc1ccc(-n2c(C)ccc2C)cc1 | 67 | 67 | 6 | 175
CC1CCN(CC(=O)NC2CC2)CC1 | 104 | 102 | -19 | 103
COC(=O)NC1CCS(=O)(=O)C1 (stereo unspecified) | 95 | 87 | -7 | .
Cc1ccc(C(CC(=O)NCC2(c3ccccc3)CCCC2)c2ccccc2)c(O)c1 (stereo unspecified) | 112 | 103 | 12 | 104
Cc1cc(Cl)ccc1OCCN(C)CCO | 69 | 101 | -7 | 100
O=C(CCN1C(=O)/C(=C\c2ccco2)SC1=S)NN1CCOCC1 | 92 | 96 | -51 | 110
CCc1ccc(CNC(=O)CCCn2ccc3cc(S(=O)(=O)N4CCCC4)ccc32)cc1 | 132 | 84 | . | 99
O=C(COc1ccc(-c2nnco2)cc1)N(Cc1cccs1)c1ccc2c(c1)OCCO2 | 68 | 86 | -28 | .
Cn1cccc1C(=O)OCC(=O)N(Cc1ccccc1)C1CCS(=O)(=O)C1 (stereo unspecified) | 100 | 96 | -2 | .
O=C(NN1C(=O)/C(=C/c2ccc(-c3ccc([N+](=O)[O-])cc3)o2)SC1=S)c1ccccc1[N+](=O)[O-] | . | . | -2 | 108
CCc1ccc(NC(=O)Cn2c(=O)n(CCC(C)C)c(=O)c3cccnc32)cc1 | 103 | 85 | -16 | 104
CCc1ccc(NC2=NC(C(=O)Nc3ccccc3)CC(=O)N2)cc1 (stereo unspecified) | 122 | 100 | . | 105

# Continued:
Molecule | Sa growth inh | Sa growth inh second temp | HCMV UL50-53 inh | GIV Gai3 FP
CCc1cccc(CC)c1NC(=O)COc1ccccc1C(=O)N1CCOCC1 | 107 | 78 | 11 | .
COCCCn1c(SCc2ccc(C(=O)O)cc2)n[nH]c1=O | 104 | 95 | 9 | .
CC(C)[C@H](NC(N)=O)C(=O)Nc1ccc(Cl)c(Cl)c1 | 58 | 52 | -14 | .
CC(=O)Nc1nnc(C)s1 | 108 | 86 | -19 | .
Cc1cccc(NC(=O)c2sc(-n3nc(C)c(CCC(C)C)c3C)nc2C)c1 | 101 | 93 | -13 | 100
Cc1csc(=Nc2ccccc2)n1C1CCCC1 | 108 | 82 | -10 | .
Cc1ccccc1-c1nn2c(=O)cc(N3CCN(C(=O)Nc4cccc(Cl)c4C)CC3)nc2s1 | . | . | 28 | 100
Cc1cc(N2CC(C)CC(C)C2)nc2ccc(NC(=O)CCC(=O)NCc3ccco3)cc12 (stereo unspecified) | 102 | 90 | -14 | 101
